High-throughput results deposited in PubChem by National Center for Advancing Translational Sciences (NCATS).
ClpP mod – qHTS Assay for Activators of ClpP; ATP-dependent Clp protease proteolytic subunit (Bacillus subtilis (strain 168)), P80244; purified B. subtilis ClpP, FRET peptide cleavage, 20 min; Potency, µM (doses to about 57.5 µM), without a hit: at the highest dose activity change, negative = active; actives 1.9% (n = 340,000); active = well fitted falling curve with a large enough effect; inconclusive = small, poorly fitted or top-dose-only effect; inactive = no such curve, though single readings can be large or run the other way; also: potency is read from the fitted curve at half-maximal effect; the source files actives as falling curves though it sought activators and does not explain the sign; nearly all actives have a fitted effect of over 65% in size; many hits overshoot -100%
Target sequence (P80244 whole entry, looked up): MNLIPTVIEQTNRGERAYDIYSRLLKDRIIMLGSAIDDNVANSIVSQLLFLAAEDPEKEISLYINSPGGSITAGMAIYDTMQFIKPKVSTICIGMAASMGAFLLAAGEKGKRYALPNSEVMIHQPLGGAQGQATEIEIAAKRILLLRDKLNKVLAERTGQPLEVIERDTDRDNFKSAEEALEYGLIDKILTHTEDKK
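Buffer: 100 mM Tris/HCl pH8, 100 mM KCl, 0.05% low protease BSA, 2.5% glycerol, 0.01% Tween-20. ClpP 10 microg/mL final; 20 min RT; delta FRET normalized to ADEP and DMSO controls.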
TRPML1 inh – inhibitors of human TRPML1 channel. Q9GZU1. TRPML1-inducible cells, Ca2+ dye fluorescence, FDSS; hits give low values; inhibition of EC80 agonist-evoked calcium signal. activity change, negative = inhibition, % (no concentration beside the values). actives 0.02% (n = 390,000). AID 624415; in the data active means activity change below about -50%; inconclusive means about -30% to -50%; inactive means above about -30%;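 also: stimulus is agonist 54-4 at its EC80 concentration; % is scaled to controls: 0 for no effect and ±100 for the full control effect; compound concentration not given in the record; the text of the record puts the active cut at -80%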
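TRPML1-DL cells, Tet-induced overnight (~16 h, 37 °C) at 1,500 cells/well, were loaded with Ca8 no-wash dye plus quencher for 45-90 min at room temperature. Compounds were pinned during FDSS kinetic reading; agonist 54-4 at EC80 (4 uM final) then added.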
Sfp inh – Sfp phosphopantetheinyl transferase inhibition. Q9F4F7. actives 3.5% (n = 310,000). Potency, µM, for inactives: max response, negative = inhibition, actives largely listed as inhibitors. Biochemical Sfp PPTase activity, qHTS; active = well fitted inhibition curve with a large enough effect; inconclusive = small, poorly fitted or top-dose-only effect, or another doubt; inactive = no such curve, though single readings can be large or run the other way;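 also: the enzyme is Sfp with the accession as filed and its product quenches rhodamine fluorescence; potency is read from the fitted curve at half-maximal effect; 0% = enzyme reaction without inhibitor and -100% = no enzyme wells; top concentration of the series not given in the record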
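Buffer: 50 mM Hepes-Na pH 7.6, 10 mM MgCl2, 0.01% Nonidet P-40, 0.01% BSA. Enzyme 15 nM, pre-exposed to compound 15 min; substrates then added and fluorescence change tracked over 30 min.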
TRPV1 PAM – enhances activation of the human vanilloid receptor TRPV1; TRPV1-expressing cells, Fluo-8 calcium influx, capsaicin EC20 potentiation; host cell line not named in the record; control for the full effect not named in the record; actives 0.02% (n = 320,000); potentiation, % at 8.33 µM; AID 540277; active means potentiation above 80%; inconclusive means 30% to 80%; inactive means below 30%; also: 0% is about no effect
Target sequence (Q8NER1 whole entry, looked up): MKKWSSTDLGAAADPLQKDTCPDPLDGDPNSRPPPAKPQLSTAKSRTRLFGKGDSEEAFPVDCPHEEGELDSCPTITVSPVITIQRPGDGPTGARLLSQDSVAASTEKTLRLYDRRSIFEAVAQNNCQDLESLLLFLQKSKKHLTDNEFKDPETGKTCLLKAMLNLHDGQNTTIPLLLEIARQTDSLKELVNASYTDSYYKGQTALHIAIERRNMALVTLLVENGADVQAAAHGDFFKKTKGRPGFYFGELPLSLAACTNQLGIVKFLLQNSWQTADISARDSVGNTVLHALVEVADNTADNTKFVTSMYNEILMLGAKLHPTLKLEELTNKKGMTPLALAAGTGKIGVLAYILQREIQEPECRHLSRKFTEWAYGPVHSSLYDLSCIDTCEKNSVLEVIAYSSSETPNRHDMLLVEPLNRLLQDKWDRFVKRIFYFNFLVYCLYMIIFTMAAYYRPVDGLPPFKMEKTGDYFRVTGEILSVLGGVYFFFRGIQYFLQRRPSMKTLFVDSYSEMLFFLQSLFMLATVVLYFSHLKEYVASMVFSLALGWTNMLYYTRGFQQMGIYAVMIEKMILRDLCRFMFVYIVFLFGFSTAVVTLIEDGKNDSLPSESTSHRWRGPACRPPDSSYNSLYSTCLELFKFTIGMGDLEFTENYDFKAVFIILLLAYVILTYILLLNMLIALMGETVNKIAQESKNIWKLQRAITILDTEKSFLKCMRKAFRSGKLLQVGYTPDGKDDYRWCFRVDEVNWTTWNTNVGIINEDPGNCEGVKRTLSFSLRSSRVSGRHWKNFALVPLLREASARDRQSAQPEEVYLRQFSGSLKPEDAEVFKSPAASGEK
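Cells expressing TRPV1 were dye-loaded with Fluo-8 and read kinetically: 10 s baseline, 3 min after compound (agonist portion), then 2 min after EC20 capsaicin (allosteric enhancer portion). Calcium-bound dye fluorescence at 480/520 nm.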
Menin-MLL FL inh – displaces fluorescein MLL peptide from human menin; 290,000 tested, under 10 active; FP activity change, % at 61.4 µM; Fluorescence polarization, fluorescein-MLL peptide displacement from menin; AID 1766; inconclusive = falling polarisation curve, or a change in total fluorescence; inactive = total fluorescence flat and polarisation flat or rising; no compound was filed as active; the % refers to the polarisation; negative = inhibition;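 also: % of control where 0% means no effect; inhibitors lower the polarisation; unlabelled MLL peptide was the positive control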
gsp agonist – gsp mutant agonism; gsp mutant cells, cAMP HTRF, 30 min; control for the full effect not named in the record; Potency, µM (titrated, usually from 76.9 µM), inactives show at the top dose activation (cAMP increase), usual class: activators; actives 0.13% (n = 340,000); AID 624287; active = well fitted activation curve with a large enough effect; inconclusive = small, poorly fitted or top-dose-only effect, or another doubt; inactive = no such curve, though single readings can be large or run the other way; cell line not stated here;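 also: phosphodiesterase inhibitor Ro 20-1724 added with compounds to block cAMP breakdown; potency is read from the fitted curve at half-maximal effect; nearly all actives have a fitted effect of over 60% in size; about a fifth of the inactives were tested at one dose only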
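Cells in DMEM/10% FBS with G418 were pretreated with compounds in DMSO plus […] (300 uM stock) for 30 min at 37C. cAMP was measured by HTRF (cAMP-d2 plus anti-cAMP antibody-K) after 30 min at room temperature.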
gsp antagonist – gsp mutant antagonism. actives 0.4% (n = 340,000). gsp-mutant cells, cAMP HTRF, 30 min; control for the full effect not named in the record. Potency, µM (doses to about 76.9 µM), without a hit: at the top dose activity change, negative = inhibition, hits mostly inhibitors. AID 624288; active = falling curve of any shape with a large fitted effect; inconclusive = falling curve, mostly with a smaller effect; inactive = flat or rising curve; cell line not stated here;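 also: intracellular cAMP measured with PDE inhibitor Ro 20-1724 present during compound exposure; potency is read from the fitted curve at half-maximal effect; % is scaled to controls: 0 for no effect and ±100 for the full control effect; nearly all actives have a fitted effect of over 65% in size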
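G418-selected cells were plated in DMEM/10% FBS for 16-24 h at 37C, then treated with compounds plus the PDE inhibitor […] (300 uM solution added) for 30 min at 37C. Intracellular cAMP was measured by HTRF after 30 min lysis at room temperature.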
* marks the source's active call; other numbers are inactive results; ? = inconclusive; . = not tested or not shown; [ ] = another dose, or the depositor's remark.

Results follow in this order: Sfp inh	ClpP mod	TRPML1 inh	TRPV1 PAM	gsp antagonist	Menin-MLL FL inh	gsp agonist
#1 CCOc1ccc(N2C(=O)/C(=C\c3ccc(OC)c(O)c3)S(=O)(=O)C2c2cccc([N+](=O)[O-])c2)cc1 (stereo not given)
  8%	-1.6%	-3	2	-5%	-1.1	15%[15.4 µM]
#2 O=S1(=O)N=C(N/N=C/c2ccc(Br)o2)c2ccccc21
  1%	.	-1	1	-10%	1.9	-24%
#3 O=C(Nc1cccc(OCC(=O)N2CCOCC2)c1)c1cccc([N+](=O)[O-])c1
  6%	-2.0%	4	0	2%	-1.5	-10%
#4 CSc1ccc(S(=O)(=O)NCC(=O)OCC(=O)NCc2cccs2)cc1[N+](=O)[O-]
  .	.	-3	3	-28%	.	12%[15.4 µM]
#5 Cc1[nH]ncc1N=Cc1ccc([N+](=O)[O-])cc1
  18%	1.3%	-2	-6	6%	3.2	-10%
#6 CNc1cc([N+](=O)[O-])ccc1OCc1ccccc1
  -8%	0.5%	.	10	?	5.1	4%
#7 O=C(CCC1CCCCC1)NCc1cccnc1
  6%	.	22	3	7%	1.5	?
#8 N/C(Cc1ccc([N+](=O)[O-])cc1)=N\OC(=O)c1ccccc1Br
  0%	1.3%	9	0	1%	-0.4	0%[15.4 µM]
#9 COc1ccccc1-c1nnc(SCC(=O)NCc2c(C)c(Cl)cc(C(C)C)c2O)o1
  11%	-0.9%	18	?	-18%	5.4	-18%
#10 CC(=O)Nc1ccc(C=NNC(=O)CCCC(=O)NN=Cc2ccc(NC(C)=O)cc2)cc1
  .	-8.7%	37	.	3%	.	-17%
#11 COc1cc2c(cc1OC)C(C(=O)N1CCN(c3ccccn3)CC1)C(c1cccs1)N(C)C2=O (stereo not given)
  9%	?	-4	-9	-3%	6.8	-22%
#12 COc1ccc(-c2nnc(SCC(=O)N(C)C3CCS(=O)(=O)C3)n2CC(C)C)cc1 (stereo not given)
  .	-2.5%	8	.	.	.	-25%
#13 CCOC(=O)CCCCC(=O)c1[nH]c(=O)[nH]c1CSc1nc(C)cc(C)n1
  -19%	-1.7%	-3	-12	1%	-0.4	?
#14 COc1ccc2[nH]c(C)c(CCNC(=S)Nc3ccccc3OC)c2c1
  -2%	-4.2%	39	-22	-19%	1.3	-32%[inhibitor]
#15 CCC(C)NC(=O)Nc1ccc2c(c1)N(C)C(=O)c1ccccc1S2 (stereo not given)
  -1%	-3.3%	-4	-7	-1%	0.3	-7%
#16 CNC(=S)N=Nc1c(O)[nH]c2ccccc12
  ?	-6.3%	2	3	4%	2.5	-18%
#17 CCOC(=O)c1nn(-c2ccc(Cl)cc2)c2nnc(Cc3ccc(C)cc3)c(=O)n12
  49%[activator]	1.2%	7	-3	?	4.5	-13%
#18 Cc1ccccc1NC(=O)C1C2CCCCC21 (stereo not given)
  1%	-0.6%	-1	9	3%	0.8	-13%
#19 CN(C)Cc1c(O)ccc2c3c(c(=O)oc12)CCCCC3
  -4%	20%	15	2	10%	3.9	?
#20 Cn1cnnc1SCC(=O)Nc1ccc(F)cc1
  6%	0.7%	6	-7	12%	-6.3	-1%[15.4 µM]
#21 CCN(CC(=O)Nc1ccc(OC)cc1)C(=O)c1ccc2c(=O)n3c(nc2c1)CCC3
  .	-0.9%	19	-6	1%	.	6%
#22 CCC(C)[C@H](NC(=O)[C@@H]1CSC2c3ccccc3C(=O)N21)C(=O)NC1CCCC1 (stereo not given in full)
  12%	0.1%	8	8	7%	.	4%
#23 COc1ccc(CCN=C(N)NS(=O)(=O)c2ccc(C)cc2)cc1OC
  15%	.	22	-11	7%	4.5	-39%[15.4 µM]
#24 CCCn1c(CN2CCCCC2C)nc2c1c(=O)n(C)c(=O)n2C (stereo not given)
  19%	1.4%	-11	-3	8%	-1.0	-74%[inhibitor]
#25 CC1CCN(Cc2nnc(-c3cccc(Br)c3)o2)CC1
  0%	.	9	-8	7%	-1.3	-14%[15.4 µM]
#26 O=C(Nc1ccccc1Cl)c1ccn[nH]1
  7%	0.0%	48	?	-5%	0.7	?
#27 CCN(CC(=O)NCc1ccc(Cl)cc1)C(=O)c1ccc(C#N)cc1
  -1%	-2.4%	-6	21	-1%	0.9	27%
#28 O=C(COc1cccc(F)c1)N[C@@H](Cc1ccccc1)c1nc2ccccc2[nH]1
  -1%	1.1%	-22	-8	1%	3.5	-69%[inhibitor]
#29 COc1ccc(OCCN2CCN(S(=O)(=O)c3ccccc3C(F)(F)F)CC2)cc1
  .	-0.6%	-9	-5	-9%	.	-1%
#30 COc1ccccc1NC(=O)COC(=O)c1ccccn1
  8%	.	-8	-1	6%	-6.9	13%[15.4 µM]
#31 O=S(=O)(NCc1csc(-c2cccs2)n1)c1ccc(Cl)cc1
  0%	4.3%	-9	16	?	2.6	13%
#32 CC(NC(=O)c1cccs1)C(S)c1ccccc1 (stereo not given)
  17%	.	-6	11	-14%	-3.3	1%
#33 CCCCc1nc(NCCNC(=O)c2ccccc2)c(C#N)c2c1CSC(C)(C)C2
  10%	28µM*	-3	-9	?	0.8	-20%
#34 COc1ccccc1Cn1[nH]nnc1=S
  40µM*	.	4	-7	13%	2.2	-13%[15.4 µM]
#35 CCOc1ccccc1NC(=O)NC1(C(=O)N2CCOCC2)CCCCC1
  5%	-4.6%	-10	11	13%	-0.4	-4%
#36 CCC(CC)C(=O)N1CCN(Cc2ccc3c(c2)OCO3)CC1
  11%	-0.5%	-3	-5	11%	0.4	9%
#37 Nc1nnc(N2CCCCC2)s1
  -6%	-7.3%	11	-12	9%	-0.4	15%
#38 O=C(N/N=C/c1cccc([N+](=O)[O-])c1)C1CC(=O)N(c2ccc(Br)cc2)C1 (stereo not given)
  -1%	0.7%	5	0	-27%	2.0	-7%
#39 C(=N\N1CCN(C2c3ccccc3-c3ccccc32)CC1)/c1cccs1
  13%	2.3%	-5	8	6%	2.9	-23%
#40 COCCOC(=O)C1=C(C)NC(=O)NC1c1c(Cl)nc2c(C)cccn2c1=O (stereo not given)
  13%	.	.	17	.	1.8	.
#41 COc1cc(OC)c2c(-c3ccccc3)cc(C3CCCCC3)nc2c1
  .	-0.6%	-6	.	-2%	.	.
#42 Cc1ccc(SCC(=O)NC(C)(C)C)cc1
  -9%	-2.7%	-11	11	4%	3.8	11%
#43 Cc1nn(Cc2ccccc2)c(C)c1N
  1%	28µM*	-4	8	1%	7.5	-22%
#44 COc1ccc(/C=C/C(=O)N(Cc2ccccc2)c2ccccn2)cc1OC
  -4%	0.0%	-8	2	12%	0.3	-35%[inhibitor]
#45 O=C(CS(=O)(=O)c1c[nH]c2ccccc12)Nc1ccc(F)cc1
  2%	-2.2%	14	0	4%	.	-4%[15.4 µM]
#46 CC(=O)Nc1ccc(C(=O)NNC(=O)c2cccs2)cc1
  -5%	.	-9	-4	12%	1.0	-15%
#47 CC(C)c1nc2ccc(NC(=O)C34CC5CC(CC(C5)C3)C4)cc2[nH]1
  4%	-0.2%	-4	-22	5%	0.3	-7%
#48 CCOc1ccc(C(=O)NC(=S)Nc2ccc(N3CCC(C)CC3)cc2)cc1[N+](=O)[O-]
  -10%	-1.4%	-2	9	-1%	2.2	1%
#49 COc1cc2c(cc1OC)CN(C(=O)c1sccc1C)CC2
  17%	28µM*	0	-4	-17%	1.5	6%[15.4 µM]
#50 COc1ccc2c(c1)[nH]c1c(=O)n(N)cnc12
  8%	2.7%	-24	0	-3%	-1.1	0%
#51 CN(C)/C=C1\N=C(c2cccs2)OC1=O
  5%	-8.1%	-19	-18	-3%	-3.0	-16%
#52 CC(C)(C)OC(=O)N1CCN(C(=O)c2[nH]cnc2C(=O)N[C@@H](Cc2ccccc2)C(=O)OCc2ccccc2)CC1
  9%	0.7%	22	1	-28%	0.4	2%
#53 COc1cc(NC(=O)Cn2cnc3sc(C)c(S(=O)(=O)N4CCN(C)CC4)c3c2=O)cc(OC)c1OC
  -13%	-1.5%	10	-21	.	1.7	.
#54 COc1ccc(NC(=O)CSc2nnc(-c3cccs3)n2-c2ccccc2)cc1
  13%	-3.0%	5	12	24%	2.4	?
#55 O=C(O)c1ccsc1Cc1cccs1
  .	-2.4%	-11	.	.	.	-9%
#56 CC1(C)CC(=O)c2cc3c(N)c(C(=O)NCc4ccccc4)sc3nc2C1
  19%	0.2%	7	1	11%	0.1	-7%
#57 Cc1occc1C(=O)N/N=C/c1ccc(Br)s1
  -3%	.	-1	-10	.	-0.4	-9%[15.4 µM]
#58 COc1ccc(Cc2nc3ccc(C(=O)N4C[C@@H](C)O[C@@H](C)C4)cc3o2)cc1OC
  11%	-0.9%	4	0	-3%	.	15%
#59 CCOC(=O)c1ccc(S(=O)(=O)Nc2ccc(N3CCOCC3)cc2)cc1
  11%	.	-5	?	?	-1.3	-9%
#60 O=C(C1=C[C@@H](c2coc3ccccc3c2=O)C[C@@H](OCCCCO)O1)N1CCOCC1
  2%	6.6%	-15	2	-1%	3.2	-1%
#61 CCN1CCN(c2ccc(S(=O)(=O)N3CCCCC3)cc2NC(=O)Cc2ccccc2F)CC1
  .	-6.4%	-8	15	8%	.	5%

Not a hit list. About 4.9% of those tested had a hit in this group.
